AID504770: E. coli YBA685 growth inhibition, screen for V. cholerae RctB inhibitors | z-score (no concentration beside the values) | AID 504770 | E. coli YBA685 rctB-dependent plasmid, OD600 growth, 3 h; active compounds read low | 0.27% of 130,000 active;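 active = z-score under -2 on both plates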;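 note: wells of about 30 µL received 100 nL stock; score is relative to mean and SD of the test wells; the first replicate is given; strong numbers were not always called active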
Ba CapD inh: inhibitors of Bacillus anthracis CapD enzyme | purified CapD enzyme, fluorescence intensity read-out; active compounds read low; some hits fall short of the stated cut | z-score (test concentration not listed) | 0.23% of 140,000 active;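 active = z-score under -4 in either of two replicates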;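 note: stock transfer was 100 nL into about 40 µL; score is relative to mean and spread of the plate; one replicate is shown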
Active calls of the source: *; x = not tested or not shown; & = joins results of further samples.

SMILES	AID504770	Ba CapD inh
O=C(NCCc1ccc(Cl)cc1)c1ccc2c(c1)[nH]c(=S)n1c3ccccc3nc21	x	3.64
CCCCCCCCCCCCCCCCCCOCC1OC2OC(C)(C)OC2C2OC(C)(C)OC12 (stereo not drawn)	x	-0.28
O=[N+]([O-])c1ccc(S(=O)(=O)N(C2CC2)C2CCN(Cc3ccccc3)CC2)cc1	x	-0.505
CC(=O)Nc1ccc(C(=O)Cn2ncc(Cl)c(Cl)c2=O)cc1	0.3	x
CCOc1cccc(NC(=O)c2cnccc2C(F)(F)F)c1	0.7	0.315
O=C(Cn1cnc2ccccc2c1=O)Nc1ccc(S(=O)(=O)N2CCCC2)cc1	-0.35	0.445
CCC(c1n[nH]c(=S)o1)N(C)C (stereo not drawn)	-0.3	x
Cc1cc(=O)[nH]c2cc3c(cc12)C(C)(C)C(C)N3C (stereo not drawn)	-1.65	x
O=C(Nc1ccccc1C(=O)Nc1ccccc1)c1cccs1	1.15	6.26
Cn1c(C(C(=O)NCC2CCCO2)N(Cc2ccc(F)cc2)C(=O)Cn2nnc3ccccc32)nc2ccccc21 (stereo not drawn)	0.25	x
COC(=O)c1ccc(C(=O)OC)c(NC(=O)c2cc3nc(-c4ccc(OC)c(OC)c4)cc(C(F)(F)F)n3n2)c1	x	-0.1
COc1ccc(S(=O)(=O)N2CCC(C)CC2)cc1	1.2	-0.53
N=Nc1[nH]c(N)c2ccccc12	0.35	-0.76
CCOC(=O)CC(=O)c1c[nH]c2ccccc12	-2.2*	-0.285
Cc1cc(C)nc(NC(=O)C(c2ccccc2)c2ccccc2)n1	1.4	x

Random excerpt: 4 entries already listed
SMILES	AID504770	Ba CapD inh
Cc1cc(=O)[nH]c2cc3c(cc12)C(C)(C)C(C)N3C (stereo not drawn)	-1.65	x
CCCCCCCCCCCCCCCCCCOCC1OC2OC(C)(C)OC2C2OC(C)(C)OC12 (stereo not drawn)	x	-0.28
CC(=O)Nc1ccc(C(=O)Cn2ncc(Cl)c(Cl)c2=O)cc1	0.3	x
N=Nc1[nH]c(N)c2ccccc12	0.35	-0.76

Following part:
SMILES	AID504770	Ba CapD inh
O=C(Cn1nc(-c2ccccc2)ccc1=O)N1CCCCC1	3.05	-0.41
COc1ccc(C2CC(c3cccs3)=NN2C(=O)CS(=O)(=O)c2cn(C)c3ccccc23)cc1 (stereo not drawn)	-0.55	x
CCN1CCN(c2ncnc3c2c(-c2ccccc2)cn3-c2ccc(Cl)cc2)CC1	-0.7	-1.17
CCn1c(=O)[nH]c(=O)c2c(N)c(C(=O)c3ccccc3OC)sc21	-0.25	x
N#Cc1cccc(NC(=O)Nc2ccc3c(c2)OCC(=O)N3Cc2ccccc2)c1	1.1	x
O=C(O)CC(CC(=O)Nc1ccc(Oc2ccccc2)cc1)c1ccccc1 (stereo not drawn)	-0.55	-0.275
CC(C)(C)c1ccc(COC(=O)NNC(=O)Cn2cnc(Cl)c2Cl)cc1	x	0.78
Cc1nnc(SCC(=O)N(C)C2CCCCC2)n1C	0.15	x
O=C(O)CC1SC(c2ccc3c(c2)OCO3)=NC1=O (stereo not drawn)	-0.85	-2.19
CCOC(=O)C1=C(C)NC2=C(C(=O)CC(c3ccc(OC)c(OC)c3)C2)C1c1ccc(OC)c(OC)c1OC (stereo not drawn)	x	8.73
CCOc1ccc(CN(C)CC(=O)c2c(N)n(Cc3ccccc3)c(=O)n(CC)c2=O)cc1OC	0	x
COC(=O)C1=CN(Cc2ccc(OC)c(OC)c2)C=C(C(=O)OC)C1c1ccc(F)c(Br)c1	x	52
CCc1ccc(-c2ccc(OC(=O)c3c(Br)cc(C(F)(F)F)cc3[N+](=O)[O-])cc2)cc1	x	-0.265
O=C(O)C1c2ccccc2C(=O)N(C2CCCCC2)C12CCCCC2 (stereo not drawn)	x	0.46
O=S(=O)(c1ccc(Cl)cc1)N(CCc1ccccn1)c1ccccc1	1.4	-0.755
CCCCNCc1cccn1-c1ccccc1	-0.25	x
COCCNC(=O)c1ccc(Oc2ccccc2)cc1	0.15	x
O=C(OCc1nnc(-c2ccccc2)o1)c1cccnc1SCc1nnc(-c2ccccc2)o1	0	x
Cc1nn(-c2ccccc2)nc1C(=O)Nc1ccccc1C(=O)NCC1CC1	-0.4	0.625
COc1cc(/C=C2\SC(=S)N(C(C)C)C2=O)ccc1OCC(N)=O	0.1	0.31
O=C(CCc1cn(Cc2ccc(F)cc2)c2ccccc12)NCC1CCCO1 (stereo not drawn)	-0.5	2.86
O=c1cc(CO)oc(CN2CCN(c3ccccc3F)CC2)c1O	-1.2	-0.765
C=CCn1c(SCC(=O)c2ccccc2F)nc2sc(C)c(C)c2c1=O	x	-0.445
CCOC(=O)c1ccc(NC(=O)Cn2c3c(sc2=O)C2c4ccccc4OCC2CS3)cc1 (stereo not drawn)	-0.65	x
CC1(C)Oc2ccc3ccc(=O)oc3c2C(/C=N/O)=C1Cl	-0.1	3.28
CC1CCCC(N(Cc2ccco2)C(=O)NCc2noc3ccccc23)C1C (stereo not drawn)	-0.6	-0.385
Nc1ccc(C(=O)N/N=C2\CCCc3ccccc32)cc1	-0.45	x
CC(C)C(=O)N1c2ccccc2C(Nc2ccccc2)CC1C (stereo not drawn)	-1.1	0.46
COc1ccc(-c2nc(-c3ccccc3)nc(N3CCN(C)CC3)c2C#N)cc1	x	-0.535
COCCNC(=O)c1cc(Br)cs1	-0.7	0.12

Already shown: entries from further up.
SMILES	AID504770	Ba CapD inh
CCCCNCc1cccn1-c1ccccc1	-0.25	x
COCCNC(=O)c1ccc(Oc2ccccc2)cc1	0.15	x

Carrying on:
SMILES	AID504770	Ba CapD inh
O=C(Nc1ccc(Cl)cc1Cl)c1cc(=O)n(Cc2ccccc2)c(=O)[nH]1	x	0.26
O=C(COc1nncc2ccccc12)Nc1ccc(F)c(F)c1	-0.4	x
COc1ccc(NC(=O)CS(=O)(=O)c2ccc3c(c2)S(=O)(=O)N=CN3)cc1	-0.6	-0.055
O=C1CSC(N(CC(=O)N2CCc3ccccc32)Cc2ccccc2)=N1	0.3	x
COc1nncc(-c2cnnc(SC)n2)n1	-2.05*	-1.69
CCSc1nc(C)c2cc(OC)ccc2n1	-1.8	-1.34
CCN(CC)S(=O)(=O)c1cccc(-c2nnc(SCc3c(C)noc3C)n2CCc2ccccc2)c1	2.05	x
O=C(CSc1nc2cc(C(=O)NCc3ccco3)ccc2c(=O)n1CC1CCCO1)c1ccc(Cl)cc1 (stereo not drawn)	x	0.16
C=CCSc1ncc(Cl)c(C(=O)NCc2ccc3c(c2)OCO3)n1	-0.5	-1.98
COc1ccc(C2CC(=O)C3=C(C2)NC(C)=C(C(=O)OCCOc2ccccc2)C3c2ccc(OC(C)=O)c(OC)c2)cc1 (stereo not drawn)	x	53.7
NC(=O)C1(N2CCCCC2)CCN(C(=O)c2ccccc2)CC1	-0.9	-0.03
CCOC(=O)c1ccc(NC(=S)NCCOC23CC4CC(CC(C4)C2)C3)cc1	-0.75	-0.725
Clc1ccc(-c2nc(NCC3CCCO3)c3ccccc3n2)cc1 (stereo not drawn)	x	-0.02
Cc1cc(C)nc(N(C(=O)C2CC2)c2ccccc2)n1	x	-0.3
O=C(NC1CCSC1=O)c1ccc(Br)cc1 (stereo not drawn)	-0.8	x
O=C1c2ccccc2C(=O)N1Cc1ccccc1	0.65	-1.04&-0.685
COc1cccc(-c2cn3c4c(=O)n(C)c(=O)n(C)c4nc3n2-c2cccc(C)c2)c1	x	-0.11
COc1ccc(N2C(=O)/C(=C\c3cn(C(C)=O)c4ccccc34)C(=O)NC2=S)cc1	x	-0.135
COc1ccc(OC)c(Nc2ncnc3c2cnn3-c2ccc(C)cc2C)c1	x	0.81
CCCCNC(=O)n1ccc(-c2nn(-c3ccc(F)cc3)ccc2=O)n1	0.35	0.055
N/C(=N\S(=O)(=O)c1cc(C(F)(F)F)cc(C(F)(F)F)c1)c1cccnc1	x	0.085
O=S(=O)(NCCCN1CCOCC1)c1ccc2ccccc2c1	0.9	0.62
Cc1[nH]c2ccccc2c(=O)c1CN1CCOCC1	-0.2	1.02
Fc1ccc(-c2csc(Nc3ccccc3Cl)n2)cc1	x	-0.665
Cc1oc(-c2ccccc2)nc1CN1C(=O)CN=C(c2ccccc2)c2ccccc21	1.05	-0.75
CCOC(=O)c1cnn(-c2ncnc3sc4c(c23)CCN(C(=O)OCC)C4)c1N	-0.45	0.38
O=c1[nH]c2ccccc2cc1/C=N/O	-1.3	x
CC1Cc2ccccc2N1S(=O)(=O)c1cnc[nH]1 (stereo not drawn)	-0.45	0.345
CN(Cc1ccccc1)c1nc(-c2ccccc2)cs1	0.1	0.14
N#CCSCc1ccco1	0.05	x
O=C(CCc1nnc2ccc(NCc3ccccc3)nn12)N1CCCC1	2.75	3.05
O=C(c1c(F)cccc1F)N1CCN(c2ccc([N+](=O)[O-])cn2)CC1	x	0.525
CCOc1ccc(NC(=O)CN2CCN(CC)CC2)cc1	-1	-0.49
Cc1cc2cc(CN3C(=O)c4ccccc4C3=O)ccc2[nH]1	-1.65	x
CN1CCC(c2cccs2)=N1	1.6	-0.16
Cc1cc(C)cc(NC(=O)Nc2ccc(N3CCCCC3)cc2)c1	-0.5	-0.2
COc1cc(OC)c(C2Nc3c(C)cc(C)cc3-c3cc(C)nn32)cc1OC (stereo not drawn)	-0.6	62.8
N#Cc1c(SCc2ccccc2Cl)sc(C(=O)c2ccccc2)c1N	x	0.015
COc1ccc(CCN(Cc2nc3ccccc3c(=O)[nH]2)C(=O)c2ccco2)cc1	0.9	x
CC1=C(C(=O)OC2CCCC2)C(c2cccc(F)c2F)CC(=O)N1 (stereo not drawn)	1.05	-0.41
O=C(NCCSCc1ccco1)Nc1ccc(F)cc1F	x	0.24
CCOc1cccc(C2Nc3ccccc3NC3=C2C(=O)CC(c2ccc(OC)c(OC)c2)C3)c1 (stereo not drawn)	x	-1.34
CSc1ccc(Br)cc1	x	-0.29
N#Cc1c(SCC(=O)NC23CC4CC(CC(C4)C2)C3)sc2c(=O)[nH]c(=O)[nH]c12	0.25	x
CC(=O)Nc1ccc(Nc2c3c(c(C#N)c4nc5ccccc5n24)CCC3)cc1	0.2	x
Cc1c(C)c(C)c(CSCC(=O)NN)c(C)c1C	x	0.43
COc1ccc(CCN(C)C(=O)c2ccc3c(c2)C(=O)N(Cc2ccco2)C3=O)cc1OC	0.15	x
O=c1[nH]c(Nc2nc3ccccc3[nH]2)nc2cc(Cl)ccc12	-0.95	x
O=C1c2ccccc2C(O)N1Cc1ccccc1 (stereo not drawn)	-0.55	-0.26
N#C/C(=C\N1CCOCC1)C(=O)Nc1ccc(F)c(Cl)c1	0.15	0.17
CCn1c(C(=O)O)c(CNCCc2ccccc2)c2ccccc21	0.1	0.235
Cc1ccc(C(=O)N/C(=C/c2ccccc2F)C(=O)N2CCCCC2)cc1	-0.45	-0.635
CC(=O)N1C(NCc2ccccc2)CC(C)N1c1ccccc1 (stereo not drawn)	-1.3	0.01
CCN=C1SC(C(=O)Nc2ccc(Br)cc2)CC(=O)N1CC (stereo not drawn)	-0.05	x
CCCCn1c(SCC(=O)O)nc2ccccc21	0.35	0.795
CCN(CC)C(=O)C(C(=O)c1ccccc1)n1cc(Cl)ccc1=O (stereo not drawn)	0.7	-0.545
Cc1ccc2nc(NCc3ccc(C(=O)O)cc3)c(-n3nc(C)cc3C)nc2c1	-1.55	3.2
CC(C)C(=O)O/N=C1\C(=O)N(Cc2ccc(Cl)c(Cl)c2)c2ccccc21	x	-0.64
O=C(COC(=O)c1cccc(I)c1)c1ccc(-n2nncc2-c2ccco2)cc1	0.15	-0.075
Oc1ccc(Br)c2cccnc12	-1.15	-0.04

Profiles as entered above:
Shown for `COCCNC(=O)c1ccc(Oc2ccccc2)cc1` = AID504770: 0.15; Ba CapD inh: x
Shown for `COc1ccc(S(=O)(=O)N2CCC(C)CC2)cc1` = AID504770: 1.2; Ba CapD inh: -0.53
Shown for `N#C/C(=C\N1CCOCC1)C(=O)Nc1ccc(F)c(Cl)c1` = AID504770: 0.15; Ba CapD inh: 0.17

New compounds follow.
SMILES	AID504770	Ba CapD inh
Cc1ccc(C)c(CSCc2nc3ccccc3[nH]2)c1	-0.45	0.415
CSc1nc(N)n2nc(C)cc2n1	x	0.01
O/N=C/c1cc(Cl)cc(Cl)c1	2.5	-0.17
C/C(=N\NC(=O)COc1ccccc1C)c1ccccc1O	-0.8	x
O=C1/C(=C/c2ccc3c(c2)OCO3)CCC/C1=C\c1ccc2c(c1)OCO2	x	-0.685
CCOC(=O)C1=C(c2ccccc2)N=C2SCC(=O)N2C1c1ccc(O)c(OC)c1 (stereo not drawn)	-0.2	x
C#CCNC(=O)Nc1ccc(C)cc1	1	x
CSc1cccc(NC(=O)CSc2nncn3c2cc2occc23)c1	-1.4	0.025
O=S1(=O)CCC(NC2CCS(=O)(=O)C2)C1 (stereo not drawn)	-0.6	-0.01
O=C1CCCC2=C1C(c1cccs1)Nc1ccccc1N2 (stereo not drawn)	0.05	-3.55*
COC(=O)c1ccc(Cn2nc(C(F)(F)F)cc2C)o1	-0.5	0.455
COc1ccc(CCn2nnc3ccccc3c2=O)cc1OC	-0.65	0.5
CNC(=O)c1cc2c(s1)CCCCCC2	-0.5	-0.045
CCOc1ccc(OCC)c(NC(=O)CSCCc2ccccn2)c1	-0.4	x
CCN(C(=O)CSc1ccccn1)c1c(N)n(Cc2ccccc2)c(=O)[nH]c1=O	0.65	x
COc1ccc(C2=N/C(=C/c3cccc(OC)c3OC)C(=O)O2)cc1Br	x	0.085
CC(C)(C)OC(=O)N1CCCN(S(=O)(=O)c2cccc3nonc23)CC1	x	-0.665

High-throughput results deposited in PubChem BioAssay by ICCB-Longwood Screening Facility, Harvard Medical School.

Rows were taken by chance; about 0.41% have a hit in one of these screens.
